# Insulin prom inh = TRM-6 insulin promoter activity inhibition. actives 0.9% (n = 130,000). inhibition, % at 2 µM. TRM-6 cells (human fetal islet line), insulin promoter-eGFP reporter, imaging; reporter expression induced with tamoxifen;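 active = inhibition above the mean plus 3 SD, with well images judged a real hit on visual review, cut at about 60% in these data, passing the limit was not always enough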
# RGS16-Gao = RGS16-Galphao interaction regulator (human). O15492+P09471. bead-based flow cytometry RGS16-Galphao binding, fluorescence; actives lie on both sides. binding response (% of control), % at 10 µM. actives 0.38% (n = 220,000). AID 1441;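 active = below 25% or above 175%, edge rows of some plates excepted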;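 note: Galphao activated by GDP with aluminum fluoride before binding; 100% = wells without compound and 0% = beads without RGS; some results beyond the cut were filed as inactive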
# Target sequence (O15492 whole entry, looked up): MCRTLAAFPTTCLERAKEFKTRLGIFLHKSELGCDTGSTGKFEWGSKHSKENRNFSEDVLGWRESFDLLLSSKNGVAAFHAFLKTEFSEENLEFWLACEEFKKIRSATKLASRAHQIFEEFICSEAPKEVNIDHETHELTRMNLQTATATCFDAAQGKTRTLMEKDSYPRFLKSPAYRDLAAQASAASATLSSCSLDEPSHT
# Target sequence (P09471 whole entry, looked up): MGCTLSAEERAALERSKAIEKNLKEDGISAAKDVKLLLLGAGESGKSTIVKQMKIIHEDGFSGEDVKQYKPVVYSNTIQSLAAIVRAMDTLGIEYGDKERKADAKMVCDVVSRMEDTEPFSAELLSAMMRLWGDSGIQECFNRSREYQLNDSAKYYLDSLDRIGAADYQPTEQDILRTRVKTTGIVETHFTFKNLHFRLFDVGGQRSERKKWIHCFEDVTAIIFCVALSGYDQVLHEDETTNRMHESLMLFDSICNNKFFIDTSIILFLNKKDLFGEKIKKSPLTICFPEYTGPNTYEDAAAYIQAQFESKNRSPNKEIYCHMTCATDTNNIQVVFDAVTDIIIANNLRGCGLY
# HSV augment = HSV replication enhancement | HSV replication augmentation in cells, fold increase | maximum fold increase | actives 0.005% (n = 220,000) | AID 1956;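 active = peak rise of 1.5-fold or more in the series; tested in PC3 cells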;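 note: first round at 10 µM; read as green reporter fluorescence; hits show the peak of a series up to 25 µM; 1 = signal of infected wells without compound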
# GALR2 ag = activates the human galanin receptor 2 | GALR2-expressing cells, agonist activation read-out | activation, %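 (tested at 5 µM)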 | actives 0.48% (n = 140,000) | AID 803;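 active = above mean plus 3 SD of all compounds, about 5% in these data, not always enough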;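 note: 0% = vehicle buffer wells and 100% = reference agonist at full effect; tested in CHO reporter cells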
# Target sequence (O43603 whole entry, looked up): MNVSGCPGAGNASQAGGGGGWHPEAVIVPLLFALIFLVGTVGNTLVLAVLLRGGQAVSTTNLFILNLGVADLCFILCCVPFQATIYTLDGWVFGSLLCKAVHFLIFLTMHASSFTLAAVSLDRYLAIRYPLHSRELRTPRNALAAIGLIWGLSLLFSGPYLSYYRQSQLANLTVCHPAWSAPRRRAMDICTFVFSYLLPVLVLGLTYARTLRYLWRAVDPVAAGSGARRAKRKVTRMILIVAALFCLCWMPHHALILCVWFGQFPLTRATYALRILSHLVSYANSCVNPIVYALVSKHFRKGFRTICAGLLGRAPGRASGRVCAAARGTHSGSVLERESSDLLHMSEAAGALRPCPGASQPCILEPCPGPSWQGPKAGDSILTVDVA
# PKD1 inh = inhibitors of human PKD1 kinase; inhibition, %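 (about 10 µM by stock and volumes)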; Q15139; PKD1 kinase fluorescence polarization assay; actives 0.056% (n = 200,000);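 active = inhibition of 50% or more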;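 note: controls were vehicle for no effect and a reference inhibitor for full effect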
# Insulin prom inh cell count = also measured in Insulin prom inh; calls as there; normalized cell count, %; measured here: cell count, toxicity; reference of the scale not given here;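 cells exposed to compound for 48 h; stained nuclei by imaging scaled within each plate; lower means fewer cells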
# HSV augment primary fold = also measured in HSV augment; calls as there; fold increase; compound at 10 µM; measured here: primary screen fold increase 10 uM; tested in PC3 cells;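 GFP signal in the first replicate; 1 = infected wells without compound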
# * = called active by the depositor; i = inactive; x = not tested or not shown; & = joins results of further samples. Random draw from the library; 1.2% or so of the library scored in one or more.
structure,Insulin prom inh,Insulin prom inh cell count,RGS16-Gao,HSV augment,HSV augment primary fold,GALR2 ag,PKD1 inh
O=C(CCc1ccccc1)NC(=S)Nc1cc(C(F)(F)F)ccc1N1CCOCC1,-51.6,70.1,103.0,i,1,-1.8,-5.5
Cc1ccc(NCC(=O)N/N=C\c2ccc[nH]2)cc1,x,x,99.1,i,1.22,x,x
CC(C)CC(=O)NC(=S)Nc1ccc(NC(=O)c2ccco2)cc1,-66.7,125.0,102.8,x,x,0.4,-2.2
Cc1cc(C=O)c(C)n1-c1ccc(Cl)c(C(=O)O)c1,-5.9,44.3,102.0,i,1.05,x,1.8
O=[N+]([O-])c1ccc(Sc2nccn2Cc2ccccc2)cc1,-4.2,90.3,103.7,i,1.08,-2.1,4.0
Cc1ccc(NC(=S)N2CCN(c3ccccn3)CC2)c(C)c1,23.5,116.8,102.5,i,0.82,x,3.8
O=C(c1cccc(F)c1)N1CCN(c2cc(N3CCCCC3)c(F)cc2[N+](=O)[O-])CC1,-37.0,103.2,106.4,i,1.09,-2.4,-12.1
Cc1cc(C)n2nnnc2c1C#N,-15.4,129.4,99.8,i,0.97,-1.0,-2.9
CC(=O)c1nnn(-c2ccccc2C#N)c1C,x,x,112.6,i,1.18,x,x
Cc1nn(CCC(=O)NNC(=S)Nc2cccc(Cl)c2)c(C)c1[N+](=O)[O-],-15.0,115.7,61.9,i,0.81,-1.1,10.0
COc1cc(NC(=O)c2ccc(F)cc2)c(OC)cc1NC(=O)CN1CCOCC1,33.3,123.7,131.4,i,1.01,x,0.0
CCCS(=O)(=O)N1CCN=C1SCc1cccnc1,64.3,85.9,104.8,i,0.92,x,-4.0
COC(=O)c1sccc1NC(=O)CN(C)NS(=O)(=O)c1ccc(F)cc1,-3.6,77.6,101.7,i,0.9,9.8,-0.1
CC(C)(C)c1cc(C(=O)NCc2cc(F)cc3c2OCOC3)n(Cc2ccccc2)n1,x,x,96.8,i,0.93,x,x
CC(O)CNC12CC3CC(CC(C3)C1)C2 (stereo not drawn),x,x,84.8,i,1.05,x,-2.8
Cc1cc(NC(=O)c2coc(=O)c(Br)c2)ccc1C(C)C,x,x,99.7,i,0.95,x,x
Cc1ccc(S(=O)(=O)NCCC2(C(C)C)CCOC(C)(C)C2)cc1 (stereo not drawn),-31.2,52.4,95.2,i,1.04,2.8,1.3
N=C1/C(=C/c2ccc(-c3cccc(C(=O)O)c3)o2)C(=O)N=C2SC=C(c3ccccc3)N12,x,x,105.0,i,0.99,x,5.6
COc1ccc(NC(=O)C(=O)NCCC2=CCCCC2)c(OC)c1,-24.3,112.1,106.2,i,0.94,-0.4,-13.6
Cc1ccc(-c2nnn(CCOc3cccc(Br)c3)n2)cc1,3.5,92.5,99.9,i,1.08,-0.2,-11.0
Cc1cc(C)n(S(=O)(=O)c2cccc(Cl)c2Cl)n1,x,x,x,i,0.79,0.3,-9.0
CCOC(=O)C(C)Oc1cccc2c(=O)n(CC(=O)NCc3ccc(F)cc3)ccc12 (stereo not drawn),x,x,105.1,i,0.79,x,x
O=C(NCc1cccs1)c1ccc(Br)o1,7.1,151.5,99.4,i,0.95,-0.2,-7.0
CCO[C@@H]1OC(C(=O)Nc2ccccc2)=C[C@H](c2ccc(Br)cc2)[C@H]1CCCO,x,x,106.0,i,0.92,x,-4.0
COc1cccc(/C=N/NC(=O)CCn2nnc3ccccc32)c1,-11.8,121.0,101.7,i,0.94,0.6,-2.1
Cc1ccc(Cn2c(C(=O)NCCCN3CCOCC3)cc3sccc32)cc1,x,x,103.1,i,0.98,-1.2,-14.4
CCOC(=O)N1CCC(n2c(=S)[nH]c3ccccc3c2=O)CC1,x,x,103.2,i,0.9,-1.2,1.7
COC(=O)c1nnn(CC(=O)Nc2cccc(Cl)c2)c1C(=O)OC,60.9,124.4,101.8,i,1.04,-1.3,-14.5
Cc1cccc(-n2c(O)c(C=Nc3cccc(O)c3)c3ccccc3c2=O)n1,x,x,102.5,i,0.94,x,x
Cc1c(NS(=O)(=O)c2ccccc2)c(=O)n(-c2ccccc2)n1C,22.2,120.9,105.2,i,0.96,-2.5,-2.8
CN(C)c1nc(N(C)C)n(Cc2c(Cl)cccc2Cl)n1,-61.5,125.1,116.8,x,x,x,5.3
Cc1cccc2nc(=S)n(C(=O)c3ccco3)n12,x,x,99.2,i,0.94,-1.1,-2.4
COc1ccc(CC(=O)Nc2ccccc2NC(=O)c2ccco2)cc1OC,x,x,102.9,i,1,x,-7.3
NC(=O)C1CCN(C(=O)CC2(CC(=O)O)CCCCC2)CC1,-94.3,51.1,95.3,i,1.11,x,-1.2
CCNCc1cc(OCC)c(OCC(=O)NCCc2ccccc2)cc1Cl,x,x,105.2,i,0.91,-0.8,6.1
O=C(CSc1cccc[n+]1[O-])NN(c1ccccc1)c1ccccc1,x,x,100.0,i,1,x,x
CSc1ccc(NC(=O)CC(C)=O)cc1,x,x,98.0,i,0.96,-0.7,-6.0
Clc1ccc(-c2csc(N3CCSCC3)n2)cc1,-18.9,53.1,104.0,i,0.93,0.6,2.9
COc1ccccc1-c1ccc(SCc2ccccc2)nn1,-18.2,129.3,111.9,i,0.95,x,-1.0
CCC(C)NC(=O)COc1ccccc1[N+](=O)[O-] (stereo not drawn),-18.8,184.7,91.3,i,1.06,-2.4,-4.9
Cc1cccc(N2CCN(C(=O)CCN3C(=O)C4C5C=CC(C5)C4C3=O)CC2C)c1 (stereo not drawn),x,x,97.7,i,0.95,x,2.4
CCN1CCN(c2cc(C)c3cc(NC(=O)c4cnccn4)ccc3n2)CC1,x,x,103.8,i,1.05,x,-10.6
Brc1ccc(CSc2ncnc3nc[nH]c23)cc1,-10.0,131.2,83.4,i,0.88,-1.8,-4.3
N#CC1=C(N)OC2=C(CCc3ccccc32)C1c1ccccc1 (stereo not drawn),-73.3,12.0,98.5,i,0.64,5.0*,-3.9
CC(C)(C)c1ccc(C(=O)c2c[nH]c(C(=O)NCc3cccnc3)c2)cc1,x,x,98.4,i,0.84,-1.8,3.2
CC(=O)Nc1cccc(NC(C)=O)n1,46.1,115.5,101.5&106.0,i,0.95&0.92,-1.1,-5.2
Cc1ccc(C)c(CN2C(=O)C(C)Oc3ccc(C)cc32)c1 (stereo not drawn),4.8,85.6,123.5,i,1.02,-1.5,-8.3
Cc1ccccc1NC(=O)C1CC(=O)N(c2ccccc2F)C1 (stereo not drawn),6.7,112.1,112.1,i,1.04,-0.2,-15.4
COC(=O)C1CCN(C(=O)COc2ccc(Cl)cc2)CC1,-305.7,83.5,83.0,i,0.76,-1.2,-2.5
CC(=O)c1cc2ccc(O)cc2oc1=O,x,x,91.3,i,0.97,x,x

# Additional results:
structure,Insulin prom inh,Insulin prom inh cell count,RGS16-Gao,HSV augment,HSV augment primary fold,GALR2 ag,PKD1 inh
CCOC(=O)CC(NC(=O)Cn1nnc(-c2ccccc2F)n1)c1ccccc1Cl (stereo not drawn),27.3,190.3,105.1,i,0.96,x,-7.8
Cc1ccn(CC(=O)N/N=C/c2cc([N+](=O)[O-])ccc2O)n1,10.8,152.0,87.0,i,0.98,-1.3,4.1
O=C(COC(=O)/C=C/c1ccc(OC(F)F)cc1)NCCN1C(=O)CSC1=O,x,x,100.6,i,0.87,x,0.8
CC(C)(C)C1CCC(=NNc2ncc(C(F)(F)F)cc2Cl)CC1 (stereo not drawn),5.4,129.3,98.0,i,1.01,-1.4,1.5
Cc1ccc(CN2CCN(/N=C/c3ccc(N(C)C)cc3)CC2)cc1,x,x,98.1,i,0.98,x,x
Cn1c(NC(=S)Nc2ccccc2)nc2ccccc21,18.2,92.4,102.2,i,0.87,-0.5,-8.4
CC1=NC2(CCCc3c2no[n+]3[O-])N(O)C1(C)C (stereo not drawn),x,x,103.0,i,0.89,-2.5,12.3
CCCOC(=O)c1ccc(NC(=O)c2nc3nc(C)cc(C)n3n2)cc1,x,x,102.2,i,0.98,x,-4.1
COc1ccccc1NC(=O)Cn1c(C)cc(=O)c2cccc(OC)c21,x,x,101.0,i,0.77,x,x
Cc1ccc(NC(=O)COc2ccccc2[N+](=O)[O-])nc1,x,x,126.7,i,1.09,x,4.9
COc1ccc(C2c3ccsc3CCN2C(=O)C(C)(C)C)cc1 (stereo not drawn),x,x,100.1,i,1.07,x,x
Cc1ccccc1OCC(=O)Nc1ccc(C(N)=O)cc1,-56.5,95.2,99.4,i,0.91,-1.2,-3.4
CCCc1cc(=O)n2[nH]c(NCc3ccc(Cl)cc3Cl)nc2n1,x,x,112.9,i,0.95,-2.1,-6.9
Cc1cc2nc3n(c2cc1C)CC1CC(C(=O)NCC2CC2)N(C)C31 (stereo not drawn),x,x,100.5,i,0.84,x,x
CC(=O)Nc1cc(-c2ccc(Cl)cc2)[nH]n1,8.3,91.1,100.0,i,0.96,x,2.3
CCCC1CCC(C(=O)Nn2cnc3ccccc3c2=O)CC1 (stereo not drawn),-16.3,104.0,81.1,i,0.65,0.0,-2.2
COc1ccc(NC(=O)CSc2nnc(NC(=O)c3ccc(S(=O)(=O)N4CCOCC4)cc3)s2)cc1,22.2,102.6,51.9,i,0.97,0.4,-9.0
CC(=O)Nc1ccccc1-c1nc2ccc(C(=O)N3CCN(c4ccccc4)CC3)cc2[nH]c1=O,x,x,98.5,i,1,-0.6,2.1
Cc1nc(N2CCN(S(=O)(=O)c3ccccc3C#N)CC2)c2c(-c3cccs3)csc2n1,x,x,105.5,i,0.7,x,-0.3
Cc1cc(C(=O)Cn2nc(C(=O)O)c3ccccc3c2=O)c(C)n1-c1ccc(OC(F)F)cc1,x,x,101.7,i,1,x,-1.1
O=C(COC(=O)c1ccc2c(c1)C(=O)N(Cc1ccncc1)C2=O)Nc1ccccc1[N+](=O)[O-],-4.0,65.5,92.0,i,1.07,-1.3,3.3
CC(C)(C)NC(=O)C(c1ccncc1)N(C(=O)CNC(=O)c1ccco1)c1ccc2c(c1)OCO2 (stereo not drawn),38.5,123.8,99.8,i,0.9,-2.3,-2.7
CCOC(=O)C(=O)NN=C(c1ccccc1)c1ccccc1,x,x,85.7,i,1.06,x,x
CCOC(=O)c1c(NC(=O)Cn2c(C)nc3ccccc32)sc2c1CCC2,14.3,126.3,100.5,i,0.84,-2.1,-6.8
Cc1nc(N/C(N)=N/S(=O)(=O)c2ccc([N+](=O)[O-])cc2)nc2ccccc12,29.7,149.1,98.5,i,0.92,0.4,-10.4
COc1ccc(-c2csc(N(CC3CCCO3)C(=O)c3ccc(C)cc3)n2)cc1 (stereo not drawn),12.5,28.8,100.6,i,0.87,-1.8,-3.9
COc1ccc(OCc2cccc(C(=O)Nc3cc(C)on3)c2)cc1,-223.1,73.9,98.9,i,0.88,-0.8,2.6
COC1C/C(=N\O)C2OC(c3ccccc3)OCC2O1 (stereo not drawn),-17.2,113.5,99.8,i,1,-1.5,-3.3
COc1cc(NC(=O)c2cccs2)c(OC)cc1NC(=O)CCC(=O)Nc1ccc2ncccc2c1,x,x,104.9,i,0.94,x,-4.7
CC(C(=O)NCCN1CCOCC1)c1ccc([N+](=O)[O-])cc1 (stereo not drawn),-23.3,122.4,97.4,i,0.95,-0.8,0.4

# Full records, quoted from the list.
# Results for `O=C(CSc1cccc[n+]1[O-])NN(c1ccccc1)c1ccccc1` → Insulin prom inh: x; Insulin prom inh cell count: x; RGS16-Gao: 100.0; HSV augment: i; HSV augment primary fold: 1; GALR2 ag: x; PKD1 inh: x
# Results for `CCNCc1cc(OCC)c(OCC(=O)NCCc2ccccc2)cc1Cl` → Insulin prom inh: x; Insulin prom inh cell count: x; RGS16-Gao: 105.2; HSV augment: i; HSV augment primary fold: 0.91; GALR2 ag: -0.8; PKD1 inh: 6.1

# More structures follow:
structure,Insulin prom inh,Insulin prom inh cell count,RGS16-Gao,HSV augment,HSV augment primary fold,GALR2 ag,PKD1 inh
O=C(CSc1nnc(-c2ccc3c(c2)OCCO3)o1)NC1CCCCC1,2.3,106.2,x,i,1.04,-1.4,-6.7
Cc1ccc(S(=O)(=O)NCC(=O)N2CCC(C)CC2)cc1,x,x,102.7,i,0.97,-2.2,-14.4
CCc1ccc(NC(=O)Cn2nc(C)c([N+](=O)[O-])c2C)cc1,-29.7,107.8,100.4,i,0.81,x,-2.9
CCN(CC)CCNCc1cc(Br)ccc1OCC(=O)NCc1ccccc1,x,x,104.0,i,0.95,x,-5.1
COc1cc2c(cc1O)CC[C@@H]1[C@@H]2CC[C@]2(C)[C@@H](O)CC[C@@H]12,x,x,100.6,i,0.59,x,x
CC1(C(=O)O)COC(c2ccc([N+](=O)[O-])cc2)OC1 (stereo not drawn),-73.3,58.6,100.7,i,0.71,-1.6,-5.6
COc1ccc(C2=COc3ccccc3C(=O)N2)cc1,x,x,103.4,i,0.97,x,0.6
